Yeast UUG start – yeast start codon fidelity modulation; S. cerevisiae UUG-firefly luciferase reporter, luminescence/redox ratio; activity score, % at 18.7 µM; hit rate 0.13% among 350,000;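 active = replicate mean at a twofold rise or more, about +100% in these data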;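 also: firefly luciferase made from a UUG start codon reports start codon fidelity; reporter light over untreated wells divided by growth signal over untreated wells; some hits fall short of that in this replicate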
PABP FP inh – blocks human PABP binding to poly(A) RNA. P11940. fluorescence polarization. inhibition, % at 35 µM. hit rate 1% among 290,000. AID 2014;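 active = 50% or more with normal probe brightness, or confirmed in later tests; inconclusive = above 50% with abnormal brightness, or retests that disagree; inactive = below 50% or failed in later tests; about a fifth of its hits are not listed in these tables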;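 also: calls also rest on retests at 20 µM and on dose response follow-up; controls were probe without protein and protein plus probe with vehicle; some compounds called inactive have numbers as strong as hits; many hits fall short of the cut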
Rce1 inhib – yeast Ras-converting enzyme inhibition; calls only; yeast membranes, quenched prenylated peptide cleavage fluorescence; Q03530; hit rate 0.27% among 290,000;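 active = fall in fluorescence gain of 50% or more versus controls, with final raw signal at or below 3038400; inconclusive = same 50% fall but final raw signal above 3038400; inactive = fall in fluorescence gain under 50%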;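 also: plate controls were neutral control wells for no effect and wells lacking membranes for full effect; tested at 10 µM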
Target sequence (Q03530 whole entry, looked up): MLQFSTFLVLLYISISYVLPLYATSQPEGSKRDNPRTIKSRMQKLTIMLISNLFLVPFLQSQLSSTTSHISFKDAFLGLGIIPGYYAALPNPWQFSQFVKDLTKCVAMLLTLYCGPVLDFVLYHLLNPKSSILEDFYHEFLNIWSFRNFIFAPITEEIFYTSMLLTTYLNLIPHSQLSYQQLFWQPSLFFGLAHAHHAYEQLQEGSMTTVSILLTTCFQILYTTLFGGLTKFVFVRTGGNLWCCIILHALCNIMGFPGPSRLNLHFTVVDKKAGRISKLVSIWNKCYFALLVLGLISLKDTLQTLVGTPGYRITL
CSC inhib – blocks cancer stem cells; cancer stem cell-like cells viability, luminescence; inhibition, % at 7.5 µM; hit rate 1.1% among 300,000; AID 2717;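 active = mean at 75% or more and at least half the replicates too; inconclusive = mean and replicates disagree; tested in HMLE shEcad cells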;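 also: 0% = median of negative and 100% = median of positive control wells; the first replicate is given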
HIV Env fusion – blocks HIV Env-driven cell-cell fusion; inhibition, % at 12.3 µM; HeLa-JRFL Env/CEM21 cell fusion, luciferase; AID 651610; hit rate 1.1% among 360,000;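 active = mean replicate inhibition score of at least 50 and every replicate individually at or above 50; inconclusive = only one of the two criteria met; inactive = mean below 50 and not all replicates reaching 50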;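 also: 0% = plate neutral controls and 100% = maraviroc near 300 nM; one replicate is shown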
eIF4H FP inh – inhibitors of RNA binding by human eIF4H; Q15056; eIF4H fluorescence polarization binding assay; inhibition, % at 35 µM; hit rate 0.94% among 290,000; AID 2012;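 active = 50% or more with normal probe brightness, or confirmed in later tests; inconclusive = above 50% with abnormal brightness, or retests that disagree; inactive = below 50% or failed in later tests; about a fifth of its hits are not listed in these tables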;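 also: calls also rest on retests at 20 µM and on dose response follow-up; 0% = protein and probe with vehicle and 100% = probe without protein; strong numbers were not always called active; many hits fall short of the cut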
MT1-MMP act inh – MT1-MMP (human) activation inhibition; P50281; HT1080 RFP-PRO-GFP cells, GFP/RFP ratio fluorescence, overnight; percent of plate control window, DMSO zero; GFP/RFP ratio change, % at 20 µM; hit rate 0.061% among 360,000; AID 651647;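 active = GFP/RFP ratio change of at least 30% with cell ATP level not reduced by more than half and red fluorescence within 50% of control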; also: strong numbers were not always called active
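Assay system: HT1080 RFP-PRO-GFP cells | Dosing: 20 µM single dose, 1% DMSO | Incubation: Cells overnight before dosing, compound overnight, 37 °C, 5% CO2 | Evaluation: GFP/RFP fluorescence ratio | Control set: DMSO-only wells and HT1080 RFP-L50D-GFP cell wells as references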
MT1-MMP act inh RFP – further read-out of MT1-MMP act inh, marked with its call; RFP signal change, %; measured here: RFP expression control read;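 0 = vehicle wells; hits needed this value within 50% of zero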
* marks the source's active call; other numbers are inactive results; i = inactive; ? = inconclusive; nt = not tested or not shown.

Results follow in this order: Yeast UUG start, PABP FP inh, Rce1 inhib, CSC inhib, HIV Env fusion, eIF4H FP inh, MT1-MMP act inh, MT1-MMP act inh RFP
> COc1ccccc1NS(=O)(=O)c1ccc(C(=O)NCC(c2ccc(F)cc2)N2CCOCC2)cc1 (stereo not given)
→ 0, nt, nt, 6, -2, nt, -6, -6
> Cc1cccc(C)c1NC(=O)CSCCO
→ -13, 3, i, -2, nt, 2, 2, 5
> CN1C(=O)/C(=C/c2ccc(C(F)(F)F)cc2)Sc2ccc(C(=O)N3CCN(c4ccccn4)CC3)cc21
→ -6, 4, i, -10, 13, -5, 1, -20
> CC(=O)N(CCc1cccc(C)c1)Cc1cc2cc(C)ccc2[nH]c1=O
→ -9, -7, i, -16, -12, -5, 4, 0
> CCC(CC)NC(=O)COC(=O)c1cc(Br)ccc1Cl
→ -12, -3, i, -1, 1, 29, 4, 2
> COc1cc(-c2cnc3c(NC=O)cc(-c4cccnc4)cn23)cc(OC)c1OC
→ -16, nt, nt, nt, -104, nt, -3, -8
> CCOc1cc(CNS(=O)(=O)c2ccc3c(c2)CC(=O)N3C)cc(OCC)c1OCC
→ -7, -6, i, 3, 9, 2, -2, 1
> CCC(CO)Oc1cc(NCc2cccc(C)c2)c2ncn(C(C)C)c2c1 (stereo not given)
→ -3, nt, nt, nt, 3, nt, 2, 9
> Cc1cc(NC(=O)Nc2ccc(Cl)c(Cl)c2)n(-c2ccccc2)n1
→ nt, -11, i, 8, 8, 4, 1, -1
> COc1ccc(CNCC(O)(c2ccccc2)c2ccccc2)cc1
→ 1, -2, i, -4, 31, -13, 1, -1
> O=C(NC1CCC(NC(=O)C(F)(F)C(F)F)CC1)C(F)(F)C(F)F (stereo not given)
→ 3, -6, i, 2, 14, -4, -2, 4
> COc1ccccc1-n1c(CNC(=O)c2ccccc2)nnc1SCC(=O)Nc1nnc(C)s1
→ -3, -1, nt, -13, ?, 4, 2, 3
> O=C(Nc1ccc(-c2cscn2)cc1)C1CCCN(Cc2ccccc2)C1 (stereo not given)
→ -2, 5, i, 8, -50, -2, 1, 0
> O=C1CCCN1CCCNC(=S)Nc1ccccc1Cl
→ -24, -3, i, -13, 5, -7, 0, 1
> CCCCCCn1c(Br)nc2c1c(=O)n(C)c(=O)n2C
→ nt, 3, i, 7, -1, -8, -3, -2
> c1ccc(CC2CNc3ccccc3CN2)cc1 (stereo not given)
→ -1, 15, i, 11, nt, 5, 3, -7
> CC(C)N=c1scc(-c2ccco2)n1/N=C/c1ccc(O)c(O)c1
→ -52, -3, nt, 99*, -114, -13, -14, -17
> O=C(O)c1ccc(N2C(=O)c3cccnc3C2=O)cc1
→ nt, 2, i, -2, -10, 0, -3, 4
> CCOC(=O)NC(=S)c1ccc[nH]1
→ -20, -3, i, 2, -6, 2, 3, 6
> CCC(C)NS(=O)(=O)c1cccs1 (stereo not given)
→ -1, 2, i, 3, nt, -13, -4, 4
> Cc1ccc(NC2CCCN(C(=O)CCC3(C)CC3)C2)cc1C (stereo not given)
→ 2, -5, i, 5, 0, -6, -1, -1
> O=C(Nc1ccc2ccccc2c1)c1ccc(NS(=O)(=O)c2ccc(Br)s2)cc1
→ nt, -6, i, -17, nt, 3, 0, -8
> Cc1ccc(Cl)cc1NC(=O)C(Cc1ccccc1)N1C(=O)C2C3CCC(C3)C2C1=O (stereo not given)
→ nt, 12, i, 3, nt, -2, -2, -3
> CCS(=O)(=O)N1Cc2ccccc2CC1C(=O)Nc1cccc(S(=O)(=O)N(C)C)c1 (stereo not given)
→ -18, -4, i, -11, 12, 0, 1, 1
> CC1(OC(=O)C2CCCC2)C(=O)C=C2C=C(c3ccsc3)N(C3CCCCC3)C=C2C1=O (stereo not given)
→ -7, 29, i, 8, -26, 44, -4, 9
> CC(C)Cn1c(N)c(C(=O)COC(=O)c2cnc(Cl)c(Cl)c2)c(=O)n(C)c1=O
→ nt, -9, i, -18, 7, 5, 7, -6
> CCN(C(=O)COC(=O)c1cc(OC)ccc1Br)C1CCS(=O)(=O)C1 (stereo not given)
→ -12, nt, nt, 6, 12, nt, 0, 0
> COc1ccc(N(C(=O)Cn2nnc3ccccc32)C(C(=O)NCc2ccco2)c2ccncc2)cc1 (stereo not given)
→ -11, 5, i, nt, -5, 8, -1, 1
> CS(=O)(=O)N(CC(=O)NCc1ccc2c(c1)OCO2)Cc1ccccc1
→ -6, 5, i, -6, -17, 1, -3, 1
> CCCOC1CCCN(C(=O)c2ccc(OC3CCN(Cc4ccccn4)CC3)cc2)C1 (stereo not given)
→ -3, 6, i, 18, 3, -3, 0, -6

Another view of four compounds above.
> Cc1ccc(NC2CCCN(C(=O)CCC3(C)CC3)C2)cc1C (stereo not given)
  Yeast UUG start = 2
  PABP FP inh = -5
  Rce1 inhib = i
  CSC inhib = 5
  HIV Env fusion = 0
  eIF4H FP inh = -6
  MT1-MMP act inh = -1
  MT1-MMP act inh RFP = -1

> COc1ccc(N(C(=O)Cn2nnc3ccccc32)C(C(=O)NCc2ccco2)c2ccncc2)cc1 (stereo not given)
  Yeast UUG start = -11
  PABP FP inh = 5
  Rce1 inhib = i
  CSC inhib = nt
  HIV Env fusion = -5
  eIF4H FP inh = 8
  MT1-MMP act inh = -1
  MT1-MMP act inh RFP = 1

> CC1(OC(=O)C2CCCC2)C(=O)C=C2C=C(c3ccsc3)N(C3CCCCC3)C=C2C1=O (stereo not given)
  Yeast UUG start = -7
  PABP FP inh = 29
  Rce1 inhib = i
  CSC inhib = 8
  HIV Env fusion = -26
  eIF4H FP inh = 44
  MT1-MMP act inh = -4
  MT1-MMP act inh RFP = 9

> CS(=O)(=O)N(CC(=O)NCc1ccc2c(c1)OCO2)Cc1ccccc1
  Yeast UUG start = -6
  PABP FP inh = 5
  Rce1 inhib = i
  CSC inhib = -6
  HIV Env fusion = -17
  eIF4H FP inh = 1
  MT1-MMP act inh = -3
  MT1-MMP act inh RFP = 1

Other results follow:
Results follow in this order: Yeast UUG start, PABP FP inh, Rce1 inhib, CSC inhib, HIV Env fusion, eIF4H FP inh, MT1-MMP act inh, MT1-MMP act inh RFP
> O=C(NCC(=O)N1CCC(Cc2ccccc2)CC1)c1ccccc1F
→ -15, nt, nt, nt, -21, nt, 5, 1
> O=C(NCCc1ccccc1F)N[C@@H](Cc1ccccc1)C(=O)O
→ -10, 1, i, 4, 11, -3, 0, 4
> Cc1ccc(CNC(=O)CNC(=O)c2ccco2)cc1
→ -8, 1, i, -28, -9, -3, 3, 0
> Cc1ccn2c(NC3CCCCC3)c(-c3cccc(-c4cccc(Cl)c4)c3)nc2c1
→ -7, nt, i, 102*, 70*, nt, -13, -13
> CC1(C)CC(=O)C2=C(C1)OC1=C(C(=O)CC(C)(C)C1)C2c1cccc([N+](=O)[O-])c1
→ 7, nt, nt, nt, 12, nt, -3, -4
> O=C(Nc1ccc(F)cc1)C1CC2CCC1C2 (stereo not given)
→ 1, -1, i, 7, 2, 5, 0, 2
> CC(C)Oc1cccc(C(=O)C2CCCN(C(=O)c3ccnn3C)C2)c1 (stereo not given)
→ nt, -12, i, 4, -6, -17, -13, -11
> C=CCNC(=O)c1onc(CSc2ccccc2F)c1C(=O)O
→ -19, 0, i, 7, 1, -1, 2, 2
> COCCNC(=O)C(c1ccc(O)cc1)N(C(=O)CCC(=O)Nc1nccs1)c1ccc(C)cc1 (stereo not given)
→ nt, -5, i, 0, -18, -2, -1, 0
> Cc1nnc(SCC(=O)NNC(=O)COc2ccc(Br)cc2)n1C
→ -24, nt, nt, -8, 5, nt, 2, 5
> CCN(CC)CCOC(=O)/C=C/c1ccccc1
→ nt, -3, i, -2, -4, -3, 3, 3
> O=C(c1ccc([N+](=O)[O-])cc1Cl)N1CCN(Cc2ccccc2)CC1
→ -18, nt, nt, nt, 16, nt, 2, -4
> Cc1cccc(C)c1NC(=O)CNC(=O)c1ccc(N2CCCC2)c([N+](=O)[O-])c1
→ 10, nt, nt, nt, -22, nt, 1, 5
> COc1ccccc1C(=O)N1CCN(C(=O)[C@H]2O[C@@H](n3ccc(=O)[nH]c3=O)[C@H](O)[C@@H]2O)CC1
→ -1, nt, nt, nt, 3, nt, 5, 6
> Cc1ccc(CN(CC(=O)NCc2ccccn2)S(=O)(=O)c2ccccc2)cc1
→ -23, 0, i, 2, 6, 3, -1, 2
> COc1ccc(/C=N/NC(=O)c2ccncc2)cc1[N+](=O)[O-]
→ nt, 7, i, -7, 12, -4, 0, 6
> COc1ccc(NC(=O)CSC2=NC(=O)CC(C)=N2)cc1
→ -8, -10, i, -4, nt, -1, -6, -5
> COc1cc(O)oc1C=Nc1ccc(C(F)(F)F)cc1
→ -22, -5, nt, -11, ?, 4, -2, 1
> COc1ccc(OC)c(NC(=O)C(CC(C)C)NC(=O)C2CCCCC2)c1 (stereo not given)
→ -15, -4, i, 8, -115, -5, 3, 3
> COc1ccc2[nH]c(=O)c(CN(Cc3nnnn3Cc3ccco3)C3CCCCC3)cc2c1
→ -12, 38, i, 5, nt, 9, -9, 7
> CSc1n[nH]c(=O)n1-c1cccc(Cl)c1
→ -4, 5, i, -4, -49, -18, 0, 2
> Cc1cccc(NC(=O)CCSc2nnc(Cc3ccccc3)o2)c1
→ -5, -12, i, nt, 1, -2, -5, 1
> C/C(CC(=O)Nc1ccc(OCc2ccccc2)cc1)=N\NC(=O)C(=O)Nc1cccc(C)c1
→ -11, 2, i, 13, -27, -2, -2, 0
> COc1ccc(C(=O)NCCCSc2ccccc2)cc1F
→ -16, 8, nt, -4, 1, -1, 2, 1
> O=Cc1cccn1-c1ccc(O)cc1
→ 1, 6, i, -7, -6, -7, -3, -1
> CC(C)(C)S(=O)(=O)N1Cc2ccc(CO)cc2[C@@H]1CCO
→ -10, nt, nt, nt, -3, nt, 1, 5
> CC(=O)Nc1cccc(-c2nc3ccccc3s2)c1
→ nt, -2, i, 13, -26, -6, 1, -1
> Cc1ccc(NC(=O)CCN2C(=O)OC(C)(C)C2(C)O)cc1 (stereo not given)
→ nt, 2, i, -5, -12, -9, 0, 2
> O=C(/C=C/c1ccc(F)cc1)N1CCCN(C(=O)/C=C/c2ccc(F)cc2)CC1
→ 4, 4, i, -5, 27, 3, 2, -3
> Cc1cccc(C(=O)NC2CC3CCCC(C2)N3C(=O)NC2CCCCC2)c1 (stereo not given)
→ -20, -4, i, -10, 21, 0, 8, 1
> CCOC(=O)C1=C(C)N=c2s/c(=C\c3cccc(OCC(=O)O)c3)c(=O)n2C1c1ccccc1 (stereo not given)
→ 1, 27, i, nt, -48, -1, -4, -9
> Cc1cc2cc(C#N)c(SCC(=O)Nc3nonc3C)nc2cc1C
→ -21, 4, i, nt, -28, -10, -22, -5

Screens (PubChem)

Hits appear at their usual frequency; overall some 2.9% were active at least once.
